# Bioassay records as filed in PubChem BioAssay.
# MT1-MMP promoter = MT1-MMP gene expression reporter suppression – cell-based, luciferase reporter, luminescence (AID 618); MT1-MMP promoter luciferase reporter cells, luminescence; calls from a first round at 10 µM; hits with a dose series show EC50 in µM; 87,000 compounds, 0.62% hits;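 active = over half of the reporter light lost at 10 µM or EC50 under 50 µM; inactive = the rest and hits that failed the dose series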;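 note: actives suppress MT1-MMP promoter-driven transcription so potencies describe inhibitors; HT1080 fibrosarcoma cells; overnight exposure; toxic or luciferase-blocking compounds were not removed from the actives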
# WNV protease inh = WNV NS2B-NS3 proteinase inhibition. P06935. WNV NS2B-NS3 protease, fluorogenic substrate Ex360/Em465; stronger effect = lower value. z-score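 (tested at a level between 10 and 100 µM)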. 65,000 compounds, 0.18% hits. AID 577;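 active = z-score at -3 or under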;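 note: score is relative to mean and spread of the compound wells of a plate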
# Target sequence (P06935 1371-1501 limits assumed): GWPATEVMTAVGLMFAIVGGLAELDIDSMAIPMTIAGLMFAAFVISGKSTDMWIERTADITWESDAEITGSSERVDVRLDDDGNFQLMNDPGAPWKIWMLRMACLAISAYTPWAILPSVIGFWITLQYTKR
# Target sequence (P06935 1502-1679 limits assumed): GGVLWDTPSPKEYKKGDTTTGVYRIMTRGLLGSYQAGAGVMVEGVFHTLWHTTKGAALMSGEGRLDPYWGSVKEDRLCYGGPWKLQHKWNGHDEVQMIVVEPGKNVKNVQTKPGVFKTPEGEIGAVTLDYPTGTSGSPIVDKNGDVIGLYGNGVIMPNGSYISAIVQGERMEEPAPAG
# Hsc70 = small molecules displacing fluorescent ligand from Hsc70 – biochemical, fluorescence polarization, primary screen (AID 568); Hsc70 fluorescence polarization, probe displacement; higher % means a stronger effect; strong numbers were not always called active; one-dose displacement, % at 20 µM; IC50 in µM for titrated hits; 83,000 tested, under 10 active;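 active = displacement above 50% without optical interference and an IC50 on retest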;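 note: ATPase domain with a fluorescein-tagged ATP probe; 0% = vehicle and 100% = excess ADP; read after one hour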
# The depositor's hits bear a star; i = inactive; / = not tested or not shown.
SMILES,MT1-MMP promoter,WNV protease inh,Hsc70
CC(OC(=O)c1ccco1)C(=O)NC1CCCCC1 (stereo unspecified),i,-1.25,-1.1%
O=C(O)/C=C/C(=O)Nc1ccccc1C(=O)Nc1ccccc1,i,/,2.6%
O=C(Nc1ccc(N2CCOCC2)cc1)C1CCCN(S(=O)(=O)c2ccccc2)C1 (stereo unspecified),i,-1.89,5.9%
Cc1ccc2c(N)c(C#N)sc2n1,i,/,1.4%
CCn1nnnc1SCC(=O)c1ccc(C)cc1C,i,/,1.3%
COc1ccc(OC)c(C2/C(=C(/O)c3cnn(-c4ccccc4)c3C)C(=O)C(=O)N2CCN(C)C)c1 (stereo unspecified),i,0.18,-2.3%
CC(=O)SCC(C)C(=O)NCc1ccccc1 (stereo unspecified),i,/,0.4%
CCOC(=O)c1sc(NC(=O)CSc2nc(-c3ccco3)cc(C(F)(F)F)n2)c(C(=O)OC(C)C)c1C,i,/,-2.7%
COc1ccc(C2CC(=O)C3=C(C2)Nc2ncnn2C3c2ccccc2C)cc1 (stereo unspecified),i,-0.36,-4.2%
C=CCC(NCc1ccco1)c1ccc(OC)cc1OC (stereo unspecified),i,1.25,0.9%
C=CCn1c(SCC(=O)N2CCN(c3ccc(F)cc3)CC2)nnc1-c1cccs1,i,0.41,-6.6%
CCOC(=O)n1ccc(C(=O)Nc2ccccc2F)n1,i,0.9,-0.5%
Cn1c(=O)[nH]c(=O)c2c1nc(N1CCCCCC1)n2CC(N)=O,i,/,-3.2%
CCN(CC)CCCN(Cc1cc2cc3c(cc2[nH]c1=O)OCCO3)C(=O)Nc1ccc(F)cc1,i,-0.3,3.1%
Cc1cc(C)n(C(=O)c2cccc(S(=O)(=O)N3CCOCC3)c2)n1,i,0.93,0.4%
O=C(CSc1ccc2ccccc2n1)c1ccc2c(c1)OCO2,i,/,-5.9%
COCc1cc(CN2CCCC2)c(O)c2ncccc12,i,5.19,1.5%
N#CCN1CCC/C1=C\[N+](=O)[O-],i,/,-2.3%
CCCCCNC(=O)c1ccc2c(=O)[nH]c3c(C(=O)NCC4CCCO4)sc(=S)n3c2c1 (stereo unspecified),i,-0.56,-9.2%
NC(=O)C(Cc1ccccc1)NS(=O)(=O)c1ccc(N2CCCC2=O)cc1 (stereo unspecified),i,0.12,2.9%

# The closing two compounds of the part before come first, to join the parts.
SMILES,MT1-MMP promoter,WNV protease inh,Hsc70
CCCCCNC(=O)c1ccc2c(=O)[nH]c3c(C(=O)NCC4CCCO4)sc(=S)n3c2c1 (stereo unspecified),i,-0.56,-9.2%
NC(=O)C(Cc1ccccc1)NS(=O)(=O)c1ccc(N2CCCC2=O)cc1 (stereo unspecified),i,0.12,2.9%
Nn1c(SCC(=O)N2CCCc3ccccc32)nnc1-c1ccc(Cl)cc1,i,1.24,1.0%
Nc1nnc(C(c2ccccc2)c2ccccc2)s1,i,/,1.7%
COc1ccc(S(=O)(=O)N2CCC(N3CCCCC3)CC2)cc1,i,0.74,-2.1%
O=C(C1CC1)N1CCC(c2nc(-c3ccc(S(=O)(=O)NCC4CCCO4)cc3)no2)CC1 (stereo unspecified),i,0.02,-0.9%
CSCCC(=O)Nc1ccc(C(C)=O)cc1,i,-0.91,0.5%
CC1CCN(CC(=O)NCc2ccccc2)CC1,i,0.48,0.7%
CC(C)CCNC(=O)CN(CC1CCCO1)C(=O)CCC(=O)Nc1nccs1 (stereo unspecified),i,1.99,-1.8%
CCNc1nc(NCC)n2c(SCC(=O)O)nnc2n1,i,-1.06,-2.9%
CCCOc1ccccc1Cn1c(=O)oc2ccc(C)cc21,i,-0.7,1.8%
O=C(O)CCn1c(SCc2ccccc2)nc2ccccc21,i,-0.33,4.2%
O=c1[nH]c2cc(Cl)cc(Cl)c2[nH]c1=O,i,0.89,-7.9%
CCCCCn1c(=O)[nH]c2cc(C(=O)O)ccc2c1=O,i,-0.62,-2.9%
CC(=O)N1CC(=O)N(OCc2ccccc2)C1c1ccc(Cl)cc1Cl (stereo unspecified),i,/,-4.1%
CC(C)C1C(c2ccccc2)N(C)C(c2ccccc2)CC1(O)c1ccccc1 (stereo unspecified),i,/,1.3%
CCOC(=O)CSC1=C(C#N)C(c2ccc(Cl)cc2)CC(=O)N1 (stereo unspecified),i,-0.15,-2.9%
COCC(C)NC(=O)c1cc(-c2ccccc2OC)on1 (stereo unspecified),i,1.09,-7.4%
O=C(O)C1CC=CCC1C(=O)NCc1ccc2c(c1)OCO2 (stereo unspecified),i,/,1.7%
COc1cccc(-c2cc(C(=O)N3CCN(C(c4ccccc4)c4ccccc4)CC3)no2)c1,i,-1.59,-0.5%
Cc1ccc(C(=O)Nc2ccc3c(c2)CCC3)o1,i,-0.65,9.3%
COc1ccc(CC(=O)OCC(=O)Nc2ccc(Cl)cn2)cc1,i,/,0.2%
CCN(CC)S(=O)(=O)c1ccc2c(c1)nc(SCn1nnc3ccccc3c1=O)n2CC,i,-0.59,0.7%
COc1ccc(OC)c(S(=O)(=O)NCc2cccnc2)c1,i,-2.04,1.0%
Cc1cc(C(=O)OCC(=O)N(C)C2CCS(=O)(=O)C2)c(C)n1-c1ccccc1 (stereo unspecified),i,-0.21,0.0%
O=C1C(C=NCCCN2CCOCC2)=C(O)c2ccccc21,i,2.46,-5.3%
CC1C(O)=C(c2nc3ccccc3[nH]2)C(=N)N1c1ccccc1 (stereo unspecified),i,3.27,-1.1%
Cc1cc(C)nc(SCC(=O)N2CCOCC2)n1,i,0.28,-6.1%
COc1ccc2nc(SCC(=O)c3ccco3)[nH]c2c1,i,/,-2.1%
Cn1c(NC(=O)c2cc(-c3ccc4c(c3)OCO4)nc3ccccc23)cc(=O)n(C)c1=O,i,0.62,-1.4%
O=C(CSc1nc(O)c(C2CCCCC2)c(=O)[nH]1)Nc1ccc(Cl)cc1,i,3.24,-1.5%
O=C(Nc1ccc2c(c1)OCCO2)C1CCCN(S(=O)(=O)c2cccnc2)C1 (stereo unspecified),i,-0.07,0.1%
COc1ccc(O)c(-c2cn[nH]c2-c2cccs2)c1,i,-0.42,4.0%
Cc1oc(-c2ccccc2F)nc1CS(=O)CC(=O)NCc1ccc2c(c1)OCO2 (stereo unspecified),i,-0.15,1.0%
Cc1ccc(NC(=O)CC(C)N2CCCC2)cc1 (stereo unspecified),i,/,3.5%
CC(C)OCCCNc1nc2c(c(=O)n(Cc3ccccc3F)c(=O)n2C)n1C,i,0.3,0.3%
Cc1cc(C(=O)COC(=O)C2=COCCO2)c(C)n1-c1ccc2c(c1)OCO2,i,1.34,8.6%
Cc1nn(-c2cccc(C(=O)O)c2)c(C)c1Oc1ccccc1O,i,0.16,0.0%
O=C(Cn1c(=O)sc2ccccc21)Nc1nc2c(s1)CCCC2,i,-0.59,-2.6%
Nc1ccccc1NC1=CC(=O)CC(c2ccco2)C1 (stereo unspecified),i,-0.88,-15.2%
CCc1c(C)nc2ncnn2c1N1CCCC(C(=O)NCc2ccco2)C1 (stereo unspecified),i,-0.71,11.5%
CCOc1ccccc1C1C(C#N)=C(N)Oc2cc(C)n(Cc3ccccn3)c(=O)c21 (stereo unspecified),i,-0.25,-4.2%
COC(=O)c1ccc(N2C(=O)CC(Sc3n[nH]c(C)n3)C2=O)cc1 (stereo unspecified),i,0.6,1.6%
CSc1nccc(-c2nn(-c3ccc(C)cc3)ccc2=O)n1,i,/,-0.6%
CCc1nnc(NC(=O)c2cc(S(=O)(=O)N(CC)CC)ccc2Cl)s1,i,/,3.5%
Cc1cccc(NS(=O)(=O)c2cccs2)c1,i,/,0.4%
COC(=O)c1cc(OC)c(OC)cc1NC(=O)CC1CCCCC1,i,-1.83,6.5%
N#Cc1c(-c2cccnc2)c2c([nH]c1=S)CCCC2,i,1.43,-1.7%
O=C1c2cccnc2C(=O)N1c1ccccc1-c1ccccc1,i,-1.58,-0.1%
CCOC(=O)Nc1oc2ccccc2c(=O)c1CN1CCOCC1,i,1.45,-0.3%
O=c1[nH]c(SCc2cccc(Cl)c2)nc2c1CCCC2,i,1.76,-3.0%
COc1ccc(NC2=C(C(C)=O)C(c3ccc(OC)c(OC)c3)C(C(C)=O)C(C)(O)C2)cc1 (stereo unspecified),i,/,-1.6%
CCOC(=O)N1CCN(C(=O)Cc2cccs2)CC1,i,-0.84,-4.6%
Cc1cc(NC(=O)c2ccccc2NS(=O)(=O)c2c(C)c(C)cc(C)c2C)no1,i,2.48,7.9%
CN1C(=S)SC(C)(C)C1/[N+]([O-])=C/c1cccnc1 (stereo unspecified),i,-1.68,1.4%
Cc1cc(C)n2nc(C(=O)Nc3cccnc3)nc2n1,i,-0.83,-3.0%
Cc1cnc(NC(=O)CSc2nnc(-c3cccs3)n2C)s1,i,0.54,7.8%
N#Cc1c(NCCO)nc(NCc2ccccc2)c2c1CCN(Cc1ccccc1)C2,i,0.28,0.0%
Cn1c(NC(=O)CC2CCCCC2)cc(=O)n(C)c1=O,i,-0.51,4.8%
Brc1ccccc1CN1CCC(N2CCCCC2)CC1,i,1.22,4.3%
Cc1ccc(-c2cc(C(=O)NCCCn3ccnc3)c3cc(Br)ccc3n2)o1,i,0.45,3.4%
Cc1cc(C)c(C#N)c(=N)o1,i,1.02,8.1%

# 5 compounds out of the list, ordered by formula weight, low to high.
SMILES,MT1-MMP promoter,WNV protease inh,Hsc70
Nc1nnc(C(c2ccccc2)c2ccccc2)s1,i,/,1.7%
CCCCCn1c(=O)[nH]c2cc(C(=O)O)ccc2c1=O,i,-0.62,-2.9%
O=C1C(C=NCCCN2CCOCC2)=C(O)c2ccccc21,i,2.46,-5.3%
Cc1oc(-c2ccccc2F)nc1CS(=O)CC(=O)NCc1ccc2c(c1)OCO2 (stereo unspecified),i,-0.15,1.0%
CCOC(=O)c1sc(NC(=O)CSc2nc(-c3ccco3)cc(C(F)(F)F)n2)c(C(=O)OC(C)C)c1C,i,/,-2.7%

# Next section.
SMILES,MT1-MMP promoter,WNV protease inh,Hsc70
Cc1cccc(CN2CCCC(C(=O)N3CCc4ccccc4C3)C2)c1 (stereo unspecified),i,/,-0.3%
CCOC(=O)N1CCC(N2CCN(S(=O)(=O)c3ccc(C)cc3)CC2)CC1,i,/,3.1%
Cc1ccc(C(=O)N2CCN(c3ccccc3)CC2)cc1C,i,-0.42,-4.7%
O=C(Nc1cc(Cl)ccc1Cl)C1CC(=O)N(c2ccc(Br)cc2)C1 (stereo unspecified),i,/,5.9%
O=S(=O)(Nc1ccc(N2CCOCC2)cc1)c1cccs1,i,1.59,-3.8%
CCCCOc1ncnc2c1[nH]c1ccc(OC)cc12,i,/,2.7%
CS(=O)(=O)N(CC(=O)Nc1ccc2c(c1)OCCO2)c1ccc2c(c1)OCO2,i,0.15,0.3%
CC(C)(C)c1ccc(C(=O)/C=C2\NC(=O)CS2)cc1,i,0.1,3.3%
O=c1c2c(nc3n1CCCCC3)-c1ccccc1CC21CCCC1,i,1.05,-5.4%
CCOC(=O)c1cnc(-n2nc(C)cc2C)nc1Nc1cccc(C(C)=O)c1,i,0.85,1.1%
COc1cccc(NC(=O)Nc2nnc(N3CCCCC3C)s2)c1 (stereo unspecified),i,-1.65,-1.9%
CC(=O)Nc1ccccc1-c1nnc(SCc2ccccc2Cl)[nH]c1=O,i,/,-1.8%
CC(=O)C1=C(C)OC(N)=C(C#N)C1c1ccco1 (stereo unspecified),i,-0.93,4.1%
Cn1c(SCc2nc(-c3ccccc3)no2)nnc1-c1ccco1,i,/,-1.2%
Cc1cc(C)c2nc(NC(=O)C3CCCO3)sc2c1 (stereo unspecified),i,/,3.6%
Cc1ccc2c(c1)NC(=O)C(CC(=O)NCc1cccnc1)O2 (stereo unspecified),i,1.23,2.6%
COc1ccc(OC)c(-c2cc(C(=O)Nc3cc(C)n(Cc4ccc(Cl)cc4)n3)no2)c1,i,1.73,-3.7%
CCC(C)NC(=O)CSc1nnc(-c2ccoc2C)n1CC1CCCO1 (stereo unspecified),i,/,0.2%
COc1ccc(OC)c(NC(=O)CN2CCC(C(=O)c3ccc(C)cc3)CC2)c1,i,-0.32,-6.6%
CCCN1CCN(C(=O)c2cccc3c2C(=O)N(CCOC)C3)CC1,i,-0.68,-1.5%
O=C(Cn1c(=O)[nH]c2ccsc2c1=O)NC1CCCCC1,i,-0.53,0.0%
COc1ccc(-c2nc(N3CCC(C)CC3)[nH]c(=O)c2C#N)cc1,i,/,1.6%
N#Cc1ccccc1NCc1ccccc1,i,0.28,5.0%
Cc1[nH]nc2c1C1(C(=O)Nc3ccc([N+](=O)[O-])cc31)C(C#N)=C(N)O2 (stereo unspecified),i,/,0.8%
Cc1ccc(NC(=O)CN2C(=O)COc3ccc(C)cc32)nc1,i,0.98,-2.4%
O=C(CCCSc1nc2ccccc2s1)NC1=NCCS1,i,-1.45,8.7%
CC(C)CNC(=O)NC(=O)COc1ncnc2sccc12,i,/,-3.3%
CC(C)N(CCO)C(=O)C(c1ccccc1)c1ccccc1,i,1.13,0.8%
O=C(Nc1c(C(=O)NCc2ccco2)cnn1-c1ccccc1)c1cccc(F)c1,i,-0.89,3.8%

# Entries of single compounds from above. Screens in order: MT1-MMP promoter, WNV protease inh, Hsc70
# COc1ccc(C2CC(=O)C3=C(C2)Nc2ncnn2C3c2ccccc2C)cc1 (stereo unspecified) is listed with i, -0.36, -4.2%
# Cc1cc(C)n(C(=O)c2cccc(S(=O)(=O)N3CCOCC3)c2)n1 is listed with i, 0.93, 0.4%
# O=C(Cn1c(=O)sc2ccccc21)Nc1nc2c(s1)CCCC2 is listed with i, -0.59, -2.6%
# CC(C)CCNC(=O)CN(CC1CCCO1)C(=O)CCC(=O)Nc1nccs1 (stereo unspecified) is listed with i, 1.99, -1.8%

# Only part of the results is shown; count on the stated rates, not on these rows.
